Screens from PubChem BioAssay.
VACV Venus inh: vaccinia inhibition (Venus reporter). Vaccinia virus Venus reporter expression, fluorescence. Potency, µM (top dose mostly 36.5 µM), for inactives: at the highest dose activity change, negative = inhibition, actives largely listed as inhibitors. 0.46% of 330,000 active. AID 720580; active means well fitted inhibition curve with a large enough effect; inconclusive means small, poorly fitted or top-dose-only effect; inactive means no such curve, though single readings can be large or run the other way; tested in A549 cells; also: nearly all actives have a fitted effect of over 30% in size; inactives centre near -10
Vaccinia mCherry: inhibitors of vaccinia virus infection (mCherry reporter signal) | Potency, µM (series often up to 36.5 µM), inactives show top-dose activity change, negative = inhibition, actives largely listed as inhibitors | Vaccinia virus mCherry reporter infection, fluorescence; about a quarter of the inactives have no number | AID 720579 | 0.63% of 310,000 active; active = well fitted inhibition curve with a large enough effect; inconclusive = small, poorly fitted or top-dose-only effect; inactive = no such curve, though single readings can be large or run the other way; tested in A549 cells; also: nearly all actives have a fitted effect of over 35% in size; inactives centre near -10
Numbers without * were called inactive; i = inactive; ? = inconclusive; · = no result given; & = joins results of further samples; [ ] = remark or other dose. % is scaled to controls: 0 for no effect and ±100 for the full control effect; potency is read from the fitted curve at half-maximal effect.

Sample of the layout (three entries):
SMILES	VACV Venus inh	Vaccinia mCherry
CN(C)c1ccc(NS(=O)(=O)c2cc(Cl)ccc2Cl)cc1	-21%	?
CCOc1ccccc1NC(=O)C1CCCN(c2ncnc3onc(-c4ccc(F)cc4)c23)C1 (stereo not given)	-12%	-8%
CCc1ccc(OCC(=O)NNC(=O)c2cc3ccccc3o2)cc1	5%	8%

The whole of this part, previewed entries included:
SMILES	VACV Venus inh	Vaccinia mCherry
CN(C)c1ccc(NS(=O)(=O)c2cc(Cl)ccc2Cl)cc1	-21%	?
CCOc1ccccc1NC(=O)C1CCCN(c2ncnc3onc(-c4ccc(F)cc4)c23)C1 (stereo not given)	-12%	-8%
CCc1ccc(OCC(=O)NNC(=O)c2cc3ccccc3o2)cc1	5%	8%
CC(=O)Nc1ccc(C=C(C#N)c2ccc(C)cc2)cc1	-7%	-16%
COc1ccc(Cl)cc1NC(=O)[C@@H]1CCCN1C(=O)c1cccs1	-10%	-18%
CCCCCCCCOC(=O)/C=C/c1c(C)[nH]c(=O)[nH]c1=O	-4%	i
CCOC(=O)C1(C)CCCN(C(=O)c2ccc(N(C)C)cc2)C1 (stereo not given)	-1%	43%[activator]
Cc1nnc(N/N=C/c2ccccc2O)n1N	?	?
CCOC(=O)Nc1nc2ccc(Cn3cccc3)cc2[nH]1	-20%	-6%
O=C(O)c1cc(-c2cccs2)nn1-c1cccc(Cl)c1	-3%	i
O=C1c2ccccc2CN1c1ccccc1	-6%	i
CCN(CCCNc1ncnc2nc[nH]c12)c1cccc(C)c1	-28%	?
COc1cc(NS(=O)(=O)c2ccc(NC(=O)/C(=C/c3ccccc3Cl)NC(=O)c3ccccc3)cc2)nc(OC)n1	-11%	-4%
O=C1c2oc3ccccc3c(=O)c2C(c2ccc(O)cc2)N1Cc1ccc2c(c1)OCO2 (stereo not given)	-8%	-15%
O=C(O)/C=C\C(=O)Nc1ccccc1C(=O)N1CCN(c2ccc(Cl)cc2)CC1	-16%	·
CC(C)Cc1cc(-c2ccco2)c(C#N)c(N)n1	24%	-13%
CCOC(=O)N1CCC(N2CCOc3ccc(CN4CCC(O)(c5cccnc5)CC4)cc3C2)CC1	0%	-3%
O=C1CCCCC1	-14%	i
CC(=O)Nc1ccc(NC(=O)Cn2cnc(S(=O)(=O)N3CCOCC3)c2)cc1	0%[7.34 µM]	i[7.34 µM]
CCOC(=O)c1sc(Nc2nc3c(F)cccc3s2)cc1C	-20%	-29%
CC(=O)c1cnn(-c2nc3c(C)cccc3s2)c1C	0%	·
Cc1ccc(-c2c(C#N)c(N)n3c(nc4ccccc43)c2C#N)cc1	?	·
COc1ccccc1NC(=O)C1CCN(c2cnccn2)CC1	-1%	-7%
Cc1cc(NC(=O)CSc2nc(=O)cc(N)n2-c2ccc(F)cc2)no1	-1%	i
CCCCC(=O)Nc1cccc(NC(=S)NC(C)=O)c1	-6%	-9%
CC(C)(C)[C@@H]1CCC(=O)N(CC[C@H](Sc2ccc(Br)cc2)c2ccccc2)CC1	?	-22%&0%
CC(=O)Nc1ccc(NC(=O)c2ccc(COc3ccc(Cl)cc3Cl)o2)cc1	-13%	-13%
C#CCOCCOCCOCCNc1nc(N2CCN(C(=O)[C@H](CCC(=O)O)n3cc(C(N)CO)nn3)CC2)nc(N2CCN(C(=O)[C@H](Cc3cc4ccccc4[nH]3)n3cc(C(N)[C@H](C)CC)nn3)CC2)n1 (stereo not given in full)	-9%	i
CCOC(=O)N1CCN(C(=O)c2ccc3c(c2)N(Cc2cc(C)ccc2C)C(=O)c2ccccc2S3=O)CC1 (stereo not given)	-14%	-9%
COc1ccccc1N(CC(=O)NCCc1ccccc1)C(=O)CCC(=O)Nc1cc(C)ccn1	-13%	-5%
Cc1ccc(S(=O)(=O)N2CCCN(C)c3nc4ccccc4nc32)cc1	2%	-9%
Cc1ccccc1NC(=S)N(CCc1c(C)[nH]c2ccc(F)cc12)Cc1ccncc1	-9%	-18%
Cc1ccc(S(=O)(=O)Oc2ccc(/C=C(/NC(=O)c3ccccc3)C(=O)NCC(=O)O)cc2)cc1	-19%	-18%
COC(=O)c1cnc(Nc2nc(CN)cs2)nc1C(F)(F)F	-11%	-8%
CN1C(=O)[C@@](O)(c2cn(C)c3ccccc23)c2cc(F)ccc21	-21%	?
Cc1nc2ccccc2c(C)c1C(=O)c1ccc(F)cc1	1%	4%
Cc1ccc2c(c1)C(=O)C(=O)N2c1ccc(Cl)cc1	-9%	?
N#C/C(=N\Nc1ccccc1Cl)C(=O)c1ccccc1	-14%	-13%
COc1ccc(-c2oc3ccc(-c4cc(OC)c(OC)c(OC)c4)cc3c2C#Cc2ccccn2)cc1	-9%	15%
CCCN1Cc2cccc(C(=O)Nc3ccccc3F)c2C1=O	1%	-7%
Cc1ccc(C(C)C)c(OCCN)c1	-12%	i
Cn1c(O)c(C2=NNC(c3ccc(Cl)cc3)C2)c(=O)n(C)c1=O (stereo not given)	-5%[7.34 µM]	-1%[7.34 µM]
CC(OC(=O)C1=COCCO1)C(=O)Nc1ccc(Cl)cn1 (stereo not given)	-4%	3%
COc1ccc(-c2oc3ccccc3c2C#Cc2cncn2C)cc1	?	?
CC(C)NC(=O)/C(=C\c1cccc([N+](=O)[O-])c1)NC(=O)c1ccccc1	-9%	-5%
Cc1cccc(C)c1OCc1nc2ccccc2[nH]1	-28%	-24%
COc1cc(NC(=O)CCN2CCN(C)CC2)cc(OC)c1	3%	-11%
O=c1c(Cl)c(NCc2ccc(F)cc2Cl)cnn1C12CC3CC(CC(C3)C1)C2	-18%	-5%
Cc1ccc(NC(=O)C2CCC(C(C)(C)C)CC2)cc1S(=O)(=O)N1CCOCC1 (stereo not given)	-3%	-2%
O=C(CSc1nc2ccccc2c(=O)n1-c1ccc(F)cc1F)c1c[nH]c2ccccc12	-21%	-12%

(more compounds)
SMILES	VACV Venus inh	Vaccinia mCherry
CC12CCC(=O)N1C(C(=O)Nc1ccc(F)c(Cl)c1)CS2 (stereo not given)	-10%	-22%
COc1ccc(NC(=O)c2cc(=O)c3ccccc3o2)cc1Cl	-1%	-2%
CC1CCN(S(=O)(=O)c2ccc(S(=O)(=O)NCc3ccco3)cc2)CC1	-13%	i
O=C(CCn1cccc1)N1CCc2ccccc21	-25%	·
CCCCC1(CC(=O)OCC)C(=O)N(c2ccccc2)N(c2ccccc2)C1=O	-2%	i
COc1ccc(NC(=O)c2ccccc2Cl)c(NC(=O)c2ccco2)c1	-18%	-17%
CC1OC(OC2C(O)CC(OC3C(O)CC(OC4CCC5(C)C(CCC6C5CCC5(C)C(C7=CC(=O)OC7)C(O)CC65O)C4)OC3C)OC2C)CC(O)C1O (stereo not given)	0.32µM*	·
CSc1ccccc1NC(=O)C1CC(c2ccccc2Cl)=NO1 (stereo not given)	-2%	i
Cc1ccc2[nH]c(=O)c3cc(C(=O)N(C)Cc4ccco4)sc3c2c1	-7%	0%
Cc1ccc(C2CC(C(F)F)n3ncc(C(=O)Nc4c(C)nn(Cc5c(F)cccc5Cl)c4C)c3N2)cc1 (stereo not given)	?	?
COc1ccc(CNC(=O)C(CC(C)C)NS(=O)(=O)c2ccc3c(c2)CCN3C(C)=O)cc1 (stereo not given)	-2%	-5%
COc1ccc(OCc2cc(C(=O)NCC3(C)COC3)no2)c(Cl)c1	-9%	i
O=C(CS(=O)(=O)c1ccccc1Cl)N1CCOCC1	-3%	-10%
CCOc1ccc(-c2cc(C(=O)N3CCN(c4cc(Cl)ccc4C)CC3)c3ccccc3n2)cc1	-15%	-13%
Cc1cc(NC(=O)c2noc3c2CCc2ccccc2-3)n(-c2ccccc2)n1	-27%	-6%
Cc1ccccc1CSCc1ccc(C(=O)NCCCN2CCOCC2)o1	-6%	-6%
O=C(NC1CC1)C1CCN(C2CCN(C(=O)Cc3ccc4c(c3)OCO4)CC2)CC1	-7%	-9%
Cn1c(=O)c2cc(NC(=O)OCCF)ccc2n1Cc1cccc(C(F)(F)F)c1	-22%	?
O=C1c2ccccc2S(=O)(=O)c2cc(-c3nn[nH]n3)ccc21	-2%	-15%
CCC(C)(C)NC(=O)CN(Cc1ccccc1Cl)C(=O)CCC(=O)Nc1cc(C)ccn1	-7%	i

Compound profiles, from the list above. Values in the order: VACV Venus inh, Vaccinia mCherry
Cc1ccc(C2CC(C(F)F)n3ncc(C(=O)Nc4c(C)nn(Cc5c(F)cccc5Cl)c4C)c3N2)cc1 (stereo not given) in the list: ?, ?
CC(=O)Nc1ccc(NC(=O)Cn2cnc(S(=O)(=O)N3CCOCC3)c2)cc1 in the list: 0%[7.34 µM], i[7.34 µM]

(listing goes on)
SMILES	VACV Venus inh	Vaccinia mCherry
Cc1ccc(-c2nc3cc(C)c(Br)c(C)n3c2Cc2ccsc2)cc1	5%	0%
Cc1ccc2c(c1)N(CC(=O)N1CCCCC1)C(=O)C(C)O2 (stereo not given)	4%	-4%
C=C1CCC[C@]2(C)C[C@H]3OC(=O)C(CNC(CC)CO)[C@H]3CC12 (stereo not given in full)	7.1µM*	7.1µM*
CCC(CC)C(=O)OCC(=O)Nc1cccc([N+](=O)[O-])c1	-11%	-1%
Cc1ccc(S(=O)(=O)Oc2ccccc2N2C(=O)C3C4CCC(C4)C3C2=O)cc1 (stereo not given)	2%	0%
CC(C)Oc1cc(F)ccc1-c1cc(C(=O)Nc2ccc(F)cc2)[nH]n1	15%	-12%
COC(=O)C1=C(c2cccc(OCc3ccccc3)c2)C[C@@H]2CC[C@H]1N2C(=O)NCc1ccc2[nH]ccc2c1	?	-29%
Cc1ccc(OCC(=O)NCCO)cc1C	-10%	i
COc1ccc(C(C(=O)NCC2CCCO2)N(C(=O)CNC(=O)c2ccco2)c2ccccc2)cc1OC (stereo not given)	3%	2%
O=C(Oc1cccc(-n2cnnn2)c1)c1ccco1	-16%	·

As a short view, part of the list above:
SMILES	VACV Venus inh	Vaccinia mCherry
CC(C)Oc1cc(F)ccc1-c1cc(C(=O)Nc2ccc(F)cc2)[nH]n1	15%	-12%
COC(=O)C1=C(c2cccc(OCc3ccccc3)c2)C[C@@H]2CC[C@H]1N2C(=O)NCc1ccc2[nH]ccc2c1	?	-29%
Cc1ccc(OCC(=O)NCCO)cc1C	-10%	i
COc1ccc(C(C(=O)NCC2CCCO2)N(C(=O)CNC(=O)c2ccco2)c2ccccc2)cc1OC (stereo not given)	3%	2%
O=C(Oc1cccc(-n2cnnn2)c1)c1ccco1	-16%	·

New compounds follow:
SMILES	VACV Venus inh	Vaccinia mCherry
COc1ccc(-c2ccc(CN3C(C)C(=O)N(Cc4cn(CCC5OCCO5)nn4)CCS3(=O)=O)cc2)cn1 (stereo not given)	-19%	?
Cc1ccc(-c2nc(SC(C)C(=O)N3CCCC3)n[nH]2)cc1 (stereo not given)	-15%	-14%
CN(CC1CCOCC1)C(=O)CC1C(=O)NCCN1C/C=C/c1ccccc1 (stereo not given)	8%	0%
Cc1ccc(C(=O)NCc2nnc(SCC(=O)Nc3sc4c(c3C#N)CCCC4)n2C)cc1	-23%	·
COc1ccc(S(=O)(=O)N2CCC(C(=O)N3CCc4ccccc4C3)CC2)cc1OC	-17%	i
COc1ccc([C@@H]2COc3c(ccc4c3C=CC(C)(C)O4)C2)c(OC)c1	-8%	0%
CCOC(=O)c1cc(NC(=O)c2ccc(C)cc2)c(=O)n2c1oc1ccc(Cl)cc12	-5%[7.34 µM]	2%[7.34 µM]
CC(C)CN1C(=O)c2ccc(NC(=O)C3CC3)cc2C1=O	-24%	i
O=C1c2ccccc2C(c2nnnn2Cc2ccccc2)N1CCOc1ccccc1 (stereo not given)	2%	-2%
O=C(Cn1cnc2c(OCc3ccccc3)ncnc21)NCCN1CCOCC1	-3%	i
COc1ccc(NC(=O)c2ccc(OC)cc2)cc1	-11%	-19%
Cc1ccc(S(=O)(=O)N(C)C)cc1NC(=O)CN1C(=O)NC(Cc2ccccc2)C1=O (stereo not given)	-10%	-16%
COc1ccc(S(=O)(=O)NCC2CCCN(C(=O)c3cccs3)C2)cc1 (stereo not given)	-18%	-13%
CN(Cc1ccccc1F)C(=O)CCCNC(=O)c1ccc(Cl)cc1	-4%	4%
C/C(=N\NC(=O)c1ccccc1F)c1ccc2c(c1)Nc1ccccc1S2	?	?
O=C(NCc1ccccc1)C(=O)NCC(c1ccco1)N1CCOCC1 (stereo not given)	3%	-9%
Cc1cc(C(=O)NCc2ccc3c(c2)OCO3)c(C)o1	5%	-9%
COCCN1C(=O)CC(NNC(=O)c2ccc(S(=O)(=O)N3CCCC3)cc2)C1=O (stereo not given)	-1%	-1%
O=C(Nc1cccc(C(=O)N2CCN(c3ccc(F)cc3)CC2)c1)c1nsc2ccccc12	-7%	-18%
COc1ccc(C(=O)Nc2cccnc2)cc1OC	8%	·
CCCc1nc2ccc(C)cn2c1Cc1ccsc1	-15%	i
CC(C)Cc1nc2sc3c(c2c(=O)n1N)CC(C)(C)OC3	-11%	-13%
CC(C)(Oc1ccc(Cl)cc1)C(=O)N(Cc1ccccc1)c1ccccn1	-5%	-13%
COc1ccc(C(=O)NNC(=O)CSc2nnc(C(C)C)n2C)cc1	-4%	-6%
Cc1ccc(-c2nc(=O)[nH]c3ccccc23)cc1	-19%	-8%
Cc1ccccc1OCC(=O)N1CCCCCCC1	-4%	i
CCOC(=O)/C=C/C(=O)Nc1cccc([N+](=O)[O-])c1	0%	-15%
COc1ccc(C2/C=C\CN(Cc3ccc(N(C)C)cc3)CC(=O)N2Cc2ccc(F)cc2)cc1 (stereo not given)	0%	-7%
CCOC(=O)NC1(C(F)(F)F)NC(=O)N(c2ccc(F)cc2)C1=O (stereo not given)	-9%	i
COc1ccc(CNCCCn2cnc3c(OCc4ccccc4)ncnc32)cc1	-24%	?
COc1ccc2[nH]c(C(=O)Nc3ncc(C)cc3Br)cc2c1	-19%	-25%
CN(C(=O)Nc1ccc(Cl)c(Cl)c1)c1ccccc1C(=O)O	-15%	-19%

Hits appear at their usual frequency; 0.87% or so of the library scored in one or more.
